# StopGo reporter: lowers the luciferase signal of an FMDV 2A StopGo reporter. Potency, µM (highest dose often 57.9 µM), for inactives: at the top dose signal change, negative = less light. human cells with a luciferase reporter of 2A StopGo recoding; control for the full effect not named in the record. actives 1.2% (n = 410,000); active = well fitted falling curve with a large enough effect; inconclusive = small, poorly fitted or top-dose-only effect; inactive = no such curve, though single readings can be large or run the other way; tested in HEK293T cells; also: % is scaled to controls: 0 for no effect and ±100 for the full control effect; nearly all actives have a fitted effect of over 45% in size; luciferase light after 4 h
# RE007 growth inh: less growth of the S. pombe RE007 Vpr strain; S. pombe RE007 Vpr strain, BacTiter-Glo ATP luminescence, 24 h; control for the full effect not named in the record; Potency, µM (top dose mostly 92.2 µM), inactives show at the top dose activity change, negative = less growth; actives 0.21% (n = 360,000); AID 651644; active = well fitted falling curve with a large enough effect; inconclusive = small, poorly fitted or top-dose-only effect; inactive = no such curve, though single readings can be large or run the other way;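 also: % is scaled to controls: 0 for no effect and ±100 for the full control effect; nearly all actives have a fitted effect of over 50% in size; the assay follows cell death caused by Vpr and the record does not say whether a fall means rescue or toxicity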
#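 Fission yeast RE007 carrying one integrated HIV-1 vpr copy, seeded at OD 0.01 in PMG+AL medium with 23 nL pinned compound. Grown 24 h at 30 degrees; viability read by BacTiter-Glo luminescence after 5 min.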
# SARS PLP yeast: SARS-CoV PLP inhibition in yeast. AID 485353. S. cerevisiae expressing SARS-CoV PLpro, growth rescue; control for the full effect not named in the record. Potency, µM (highest dose often 32.9 µM), without a hit: top-dose activity, positive = growth rescue. actives 0.19% (n = 330,000); active means well fitted rising curve with a large enough effect; inconclusive means small, poorly fitted or top-dose-only effect; inactive means no such curve, though single readings can be large or run the other way; also: 0% is about no effect; nearly all actives have a fitted effect of over 55% in size; growth read by luminescence after 48 h
# * = called active by the depositor; ? = inconclusive; [ ] = another dose, or the depositor's remark. Potency is read from the fitted curve at half-maximal effect.
# Screens in order – RE007 growth inh | StopGo reporter | SARS PLP yeast
COC(=O)[C@]1(C)N[C@H](CN(C)C(=O)C2CCCCC2)[C@@H]2C(=O)N(C)C(=O)[C@@H]21
  4% | -15% | 1%
CCN1C(=O)[C@H]2[C@H]3CN=C(SCc4ccc(C)cc4)N3[C@@](Cc3ccccc3)(C(=O)OC)[C@H]2C1=O
  -8% | -19% | 3%
CCOC(=O)c1c(C)[nH]c(C(=O)N(C)CC(=O)Nc2ccc(OC)cc2)c1C
  18% | -18% | -8%
C[C@H](CO)N1C[C@H](C)[C@@H](CN(C)Cc2ccc(-c3ccccc3)cc2)Oc2c(NS(=O)(=O)c3ccccc3)cccc2C1=O
  -11% | 4% | -6%
Cc1cc(C)c(C#N)c(N)n1
  0% | -18% | -2%
O=C(O)c1cccc(N2C(=O)/C(=C/c3ccc(SCc4ccc(Cl)cc4)o3)SC2=S)c1
  -18% | -2% | 1%
CN1CCN(CCCNC(=O)c2ccc(/C=C3\Sc4ccccc4N(Cc4ccc(F)cc4)C3=O)cc2)CC1
  3% | 19% | -6%
O=C1[C@H]2[C@@H](c3ccc(Cl)cc3)N3C(=O)N(c4cccc(Cl)c4)C(=O)[C@@]3(Cc3ccc(Cl)cc3)[C@H]2C(=O)N1C1CCCCC1
  10% | -24% | 1%
O=C(COC(=O)/C=C/c1ccco1)NCc1ccc(Cl)cc1
  -2% | -7% | 4%
Cc1ccc(S(=O)(=O)N(C)CC(=O)NCC(c2ccco2)N(C)C)cc1 (stereo not drawn)
  16% | -8% | 1%
CCN(CC)C(=O)[C@H]1C[C@H](CC(=O)NCc2ccc(OC)c(OC)c2)C(=O)N2CCc3c([nH]c4ccc(Cl)cc34)[C@]12C
  6% | -24% | 2%
CNC1(C)[C@H]2CC[C@H](C2)C1(C)C (stereo partly drawn)
  -8%[18.4 µM] | -16% | 5%
O=C(c1cccc(S(=O)(=O)N2CCCC2)c1)N1CCOCC1
  4% | -2% | 1%
Clc1ccccc1-c1ccc(/C=N/Nc2nncc(-c3ccccc3)n2)o1
  3% | ? | -1%
CCN(CC)C(=O)[C@H]1C[C@H](CC(=O)NCCCn2ccnc2)C(=O)N2CCc3c([nH]c4cc(CCC(=O)N(C)C)ccc34)[C@]12C
  -10% | -19% | -1%
O=C(CN1C(=O)NC2(CCc3ccccc32)C1=O)c1cccs1 (stereo not drawn)
  -17% | -7% | 1%
COc1ccc(NC(=O)CSc2ccc([N+](=O)[O-])cc2)cc1S(=O)(=O)N1CCOCC1
  -12% | -18% | 2%
CCSc1ccc([C@@H]2[C@@H]3C(=O)N(CC)C(=O)[C@@H]3[C@]3(C(=O)OC)CCCCN23)cc1
  26% | -25% | 0%
O=C1OC[C@H]2CCCN2C(=O)[C@@H](CC(=O)N(CCO)Cc2ccccc2)C/C=C\C[C@H]1Cc1ccc(F)cc1
  -8% | -8% | -2%
C#CCOCCOCCOCCNc1nc(N2CCN(C(=O)CCCCCCCCCCNC(=O)Cn3cc(C[C@@H](C)O)nn3)CC2)nc(N2CCN(C(=O)CCCCCCCCCCNC(=O)Cn3cc(C[C@@H](C)O)nn3)CC2)n1
  -2% | 0% | -1%
CC(=O)Nc1ccc(NC(=O)CCC(=O)OCC(=O)c2cccc([N+](=O)[O-])c2)cc1
  7% | 2% | 1%
CC(C)(C)C(=O)COC(=O)c1cc(-c2cccnc2)nc2ccccc12
  -21% | -3% | -6%
COc1cc(/C=C2\C(=O)N(c3ccc(S(N)(=O)=O)cc3)N=C2C)ccc1OC(=O)c1ccco1
  -14% | -17% | 1%
CCn1c(SCC(=O)c2c(N)n(C3CC3)c(=O)[nH]c2=O)nnc1-c1ccoc1C
  13% | -11% | -4%
CN(CCc1ccccc1)C(=O)c1cccc(NC(=O)Cc2cccc([N+](=O)[O-])c2)c1
  1% | ? | 1%
CC(C)n1nc(C(=O)NNC(=O)c2ccc(OC(F)F)cc2)c2ccccc2c1=O
  16% | -10% | 2%
O=S(=O)(c1ccccc1)n1cc(-c2ccccn2)c(N2CCOCC2)n1
  -8% | 5% | -1%
CNC(=O)c1[nH]cnc1C(=O)Nc1cccc(Cl)c1
  6% | 28% | -4%
O=C(/C=C/c1ccco1)NCC(=O)N/N=C/c1ccccc1[N+](=O)[O-]
  -2% | 5% | -1%
COC(=O)c1cc(Br)ccc1NC(=O)CSCc1c(C)noc1C
  5% | ? | 7%
CCOC(=O)c1ccc(NC(=O)C2CC(=O)N(c3ccc4c(c3)OCCO4)C2)cc1 (stereo not drawn)
  20% | -7% | 12%
CCOc1ccc2oc(C(=O)OCC(=O)NCc3ccc(OC)cc3)c(C)c2c1
  -6% | -4% | -11%
Cc1ccc(CN2CCN(/N=C/c3cccn3C)CC2)c(C)c1
  -15% | -18% | -5%
Cc1ccc(NC(=O)c2ccc(OCc3c(C)noc3C)cc2)nc1
  13% | ? | -6%
Cc1ccc(S(=O)(=O)NCCC(=O)NCC(c2cccs2)N(C)C)cc1C (stereo not drawn)
  -2% | -10% | 1%
Fc1ccc(-c2c[nH]c(=S)n2Cc2ccccc2)cc1
  25% | 22% | 18%
Cc1ccc(C(=O)CCC(=O)NC2=NCCS2)cc1
  ? | -9% | 1%
COc1ccc(C(=O)COC(=O)c2cncc(Br)c2)cc1
  10% | 5% | 2%
O=C(OCC(=O)N1CCOCC1)c1cnc(Cl)c(Cl)c1
  1% | -11% | 4%
CCOC(=O)C1CCN(C(=O)c2ccc(N3CCOCC3)c([N+](=O)[O-])c2)CC1
  -10% | -11% | -3%
COC(=O)[C@]1(Cc2ccccc2)N[C@H](CN(C)C(=O)Nc2ccccc2)[C@@H]2C(=O)N(C)C(=O)[C@@H]21
  30% | -11% | -4%
CCC(CC)c1nnc(NC(=O)c2cc([N+](=O)[O-])ccc2N2CCOCC2)s1
  -2% | -15% | 0%
Cc1cc(C(=O)OCC(=O)Nc2cccc(F)c2)c(C)n1C1CC1
  9% | -2% | 0%
Cc1ccc(C(=O)c2c3ccc(C(F)(F)F)cc3nn2CCC(N)=O)cc1
  -7% | 16% | -6%
COc1cc(OC)cc(C(=O)NC2CC3CCC(C2)N3C)c1 (stereo not drawn)
  11% | -13% | 0%
C#CCOCCOCCOCCNc1nc(N2CCN(C(=O)CCCCCCCCCCNC(=O)Cn3cc(CCCCCN)nn3)CC2)nc(N2CCN(C(=O)CCCCCCCCCCNC(=O)[C@H]([C@@H](C)CC)n3cc(CCCCCN)nn3)CC2)n1
  9% | ? | 6%
Cc1ccc(C)c(N2CCN(C(=O)CCc3nc(-c4ccc(Cl)cc4)no3)CC2)c1
  6% | -19% | -14%
CC[C@@H](C)[C@@H]1CN([C@@H](C)CN2CCC[C@H]2CN2C(N)=NC[C@H]2CC(C)C)C(=N)N1CCCC1CCCC1
  -11% | -17% | 0%
OCc1cc(-c2ccccn2)no1
  -12% | -3% | -1%
O=C(NC1CCCCC1)c1cc(S(=O)(=O)N2CCCCC2)ccc1N1CCOCC1
  13% | -6% | 2%
COC(=O)[C@H](CCSC)NC(=O)Cn1cnc(C(=O)Nc2ccc(C)c(C)c2)n1
  -11% | 31%[activator] | -3%
O=C(COC(=O)COc1ccccc1)NC12CC3CC(CC(C3)C1)C2
  -6% | -2% | -12%
COc1ccc(C(=O)Nc2cccc(S(=O)(=O)N(C)C)c2)cc1S(=O)(=O)N1CCOCC1
  -3% | -23% | -2%
COc1cc(C(=O)NNC(=O)COc2ccccc2Cl)ccc1OCC(=O)N1CCOCC1
  10% | -22% | -9%
CCN(C(=O)COC(=O)CSc1ccc(F)cc1)c1c(N)n(Cc2ccccc2)c(=O)[nH]c1=O
  -6% | -21% | -1%
CS(=O)(=O)c1ccc(Cl)c(NC(=O)C2CCCCN2S(=O)(=O)c2ccccc2)c1 (stereo not drawn)
  -9% | -14% | -2%
CS(=O)(=O)c1ccc(N2CCN(S(=O)(=O)c3cccs3)CC2)c([N+](=O)[O-])c1
  3% | -28% | 0%
CC(C)(C)OC(=O)CNC(=O)c1[nH]cnc1C(=O)N[C@@H](CCCCN)C(=O)OC(C)(C)C
  -7% | -3% | 10%
Cc1ccc(OCC(=O)Nc2nc(C)c(Cl)cc2Cl)c([N+](=O)[O-])n1
  -1% | 23% | 4%
CCN(CC)S(=O)(=O)c1ccc2c(c1)N(CC(=O)Nc1cccnc1Cl)C(=O)CO2
  -10% | -10% | 1%

# Some entries already given, limited to SARS PLP yeast:
Structure	SARS PLP yeast
CNC1(C)[C@H]2CC[C@H](C2)C1(C)C (stereo partly drawn)	5%
O=C(c1cccc(S(=O)(=O)N2CCCC2)c1)N1CCOCC1	1%

# (more compounds)
# Screens in order – RE007 growth inh | StopGo reporter | SARS PLP yeast
Cc1cc(C(C)(C)C)cc(C)c1COC(=O)CN1C(=O)NC2(CCCC2)C1=O
  7% | -22% | 5%
COc1ccccc1N1CCN(C(=O)CSc2nc(C)c(C)c(=O)[nH]2)CC1
  -8% | -7% | 2%
COc1ccc2oc(C(=O)N3CCN(C/C=C/c4ccccc4)CC3)c(C)c2c1
  12% | ? | -3%
Cc1[nH]c2ccccc2c1CCN(Cc1cccs1)C(=S)Nc1ccccc1
  -2% | 3% | -1%
CCOC(=O)C1=C(C)NC(C)=C(C(=O)OCC)C1C(=O)OCC(=O)N1CCCCC1C (stereo not drawn)
  -3% | -2% | -10%
COc1ccc(CN(C)C(=O)c2ccc(Cl)c(S(=O)(=O)NCc3cccnc3)c2)cc1F
  -15% | -22% | 7%
COC(=O)[C@@]12CCCCN1[C@H](c1ccc(-c3ccc(OC)cc3)cc1)[C@H]1C(=O)N(C)C(=O)[C@H]12
  0% | ? | 0%
Cc1cccc(NC(=O)CN2CCN(C(=O)c3cncn3-c3ccc(F)cc3)CC2)c1C
  1% | -25% | 4%
CN(C)S(=O)(=O)c1cccc(NC(=O)COC(=O)c2ccc3ccccc3n2)c1
  -3% | 1% | 0%
CCOc1ccc(S(=O)(=O)N2CCOCC2)cc1NC(=O)CSCc1ccc(C)cc1
  7% | 13% | 11%
COc1ccccc1CNC(=O)CN1C(=O)N(C)C2(CCCCC2)C1=O
  1% | -3% | -2%
CCN(CC(=O)Nc1c(F)cccc1F)C(=O)CNC(=O)c1sc2ccccc2c1Cl
  -13% | 36%[activator] | 7%
CC(C)N(C(=O)CSc1nnc(NC(=O)c2ccco2)s1)C(C)C
  3% | 20% | -11%
CC(=O)Nc1ccc(S(=O)(=O)N[C@@H](C)C(=O)NC2CCCc3ccccc32)cc1 (stereo partly drawn)
  0% | -12% | -4%
FC(F)(F)c1cccc(NC(=S)N2CCCCCC2)c1
  5% | 32%[activator] | 0%
CC1CCN(C(=O)COC(=O)c2cc(=O)[nH]c3ccccc23)CC1
  6% | 54%[activator] | 2%
CCOC(=O)/C(=N\Nc1ccccc1Cl)N(C)C1CCCCC1
  109% | 4% | -1%
COc1cc(OC)cc(-c2oc(=O)c3cc(OC)c(OC)cc3c2C(F)(F)F)c1
  21% | -27% | 1%
COc1ccc(-c2ccc3c(c2)S(=O)(=O)c2cccc(C(=O)NC[C@@H]4CCCO4)c2C3=O)cc1OC
  8% | -23% | -3%
COC(=O)c1ccc(COC(=O)CNC(=O)c2ccc(C)s2)cc1
  2% | -16% | 1%
CCC(CO)Oc1cc(NCc2ccccc2)c2ncn(C(C)C)c2c1 (stereo not drawn)
  -10% | -11% | 8%
Cc1cc(C)n(-c2ccc(C(=O)N3CCN(S(=O)(=O)c4ccc(Cl)cc4)CC3)cc2)n1
  -9% | ? | -1%
CC(C)NC(=O)Nc1ccc2c(c1)C(=O)N([C@H](C)CO)C[C@H](C)[C@@H](CN(C)S(=O)(=O)c1ccccc1)O2
  6% | 11% | 1%
C=CC[C@@H](CC(=O)N(CCO)Cc1ccccc1)C(=O)NCCOC(=O)[C@@H](CC=C)Cc1ccc(F)cc1
  1% | ? | 0%
Cc1nc(C)c(C(=O)OCC(=O)NCc2ccccc2)s1
  4% | -15% | 0%
COC(=O)C1=C(c2cccc(OCc3ccccc3)c2)C[C@@H]2CC[C@H]1N2C(=O)NCc1ccc(Br)cc1
  -7% | -17% | 3%
CCOc1ccc(S(=O)(=O)N2CCC(C(=O)NCC(=O)Nc3cccc(Cl)c3C)CC2)cc1
  -4% | 0% | 6%
COc1ccc(Nc2nc(-c3ccc(OC)cc3)cs2)cc1
  -12% | 67%[activator] | -1%
NC(=O)c1ccc(NC(=O)COC(=O)CCN=C2NS(=O)(=O)c3ccccc32)cc1
  16% | -10% | 6%
COCCn1c(SCC(=O)Nc2c(C)n(C)n(-c3ccccc3)c2=O)nc2ccccc2c1=O
  -3% | -18% | -6%
Cc1nn(-c2ccc(F)cc2)c(N)c1C1(O)C(=O)Nc2ccccc21 (stereo not drawn)
  12% | 0% | 3%

# High-throughput results (PubChem)

# The list is partial; count on the stated rates, not on these rows.
